Source: PubChem (National Center for Advancing Translational Sciences (NCATS))
VDR inh: inhibitors of human vitamin D receptor | P11473 | Potency, µM, for the others: max response, negative = inhibition, usual class: inhibitors | actives 0.93% (n = 400,000) | VDR-SRC2-3 peptide fluorescence polarization, 2 h | AID 504847; active = well fitted inhibition curve with a large enough effect; inconclusive = small, poorly fitted or top-dose-only effect, or another doubt; inactive = no such curve, though single readings can be large or run the other way; note: series mostly up to about 120 µM
Target sequence (P11473 whole entry, looked up): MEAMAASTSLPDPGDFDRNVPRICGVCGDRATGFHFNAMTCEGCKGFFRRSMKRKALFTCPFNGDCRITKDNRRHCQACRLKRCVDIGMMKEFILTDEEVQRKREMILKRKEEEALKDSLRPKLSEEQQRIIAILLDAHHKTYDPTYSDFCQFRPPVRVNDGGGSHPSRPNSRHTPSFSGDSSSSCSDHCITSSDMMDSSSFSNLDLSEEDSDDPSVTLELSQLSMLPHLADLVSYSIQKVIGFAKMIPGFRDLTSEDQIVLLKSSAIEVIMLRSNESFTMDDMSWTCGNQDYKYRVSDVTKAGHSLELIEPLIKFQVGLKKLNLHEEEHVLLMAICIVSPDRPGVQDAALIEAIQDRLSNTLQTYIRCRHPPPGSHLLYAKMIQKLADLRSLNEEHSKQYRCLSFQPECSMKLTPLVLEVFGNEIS
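Two reagent solutions held at 4 deg C in the dark were dispensed, compounds pinned at 23 nl, and the mixture incubated 2 h at room temperature. Read-out: fluorescence polarization of VDR–SRC2-3 peptide binding.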
* hit, by the source's call; u = inconclusive; & = joins results of further samples; [ ] = dose if it differs, or a comment. % is set by controls: 0 for no effect and ±100 for the full control effect; potency is the fitted concentration of half-maximal effect. Only part of the results is shown, so the mix of outcomes need not match the whole.

SMILES	VDR inh
NC1=NN=C(N2N=C(c3ccco3)CC2(O)C(F)(F)F)n2ncnc2C1 (configuration not stated)	-2%
Cc1onc(C(=O)N2CCC(C(N)=O)CC2)c1-c1ccccc1Cl	6%
COc1ccc(OC)c(NC(=O)c2cc(-c3c(C)cc(C)cc3O)n[nH]2)c1	-4%
CCOc1ccc(-n2c(N)c(-c3nc4ccccc4n3C)c3nc4ccccc4nc32)cc1	-10%
Cc1ccc(S(C)(=O)=O)cc1C(=O)Nc1ccc(S(=O)(=O)Nc2nccs2)cc1	-24%
O=C(CC(NCc1cccnc1)C(=O)O)Nc1ccc(F)cc1 (configuration not stated)	-12%
Nc1c(C(=O)CSc2nnc(Cc3ccccc3)o2)c(=O)[nH]c(=O)n1C1CC1	9%
CCn1cc[n+](C)c1P(c1ccccc1)c1ccccc1	1%
CN(CC(=O)Nc1cccc(F)c1)C(=O)c1ccc(OCc2cn3ccccc3n2)cc1	-26%
CC(C)c1ccc(C(C(=O)NC2CCCC2)N(C(=O)CNC(=O)c2ccco2)c2cccnc2)cc1 (configuration not stated)	-4%

As entered above:
In VDR inh, `CCn1cc[n+](C)c1P(c1ccccc1)c1ccccc1` shows 1%
In VDR inh, `NC1=NN=C(N2N=C(c3ccco3)CC2(O)C(F)(F)F)n2ncnc2C1` (configuration not stated) shows -2%
In VDR inh, `O=C(CC(NCc1cccnc1)C(=O)O)Nc1ccc(F)cc1` (configuration not stated) shows -12%
In VDR inh, `COc1ccc(OC)c(NC(=O)c2cc(-c3c(C)cc(C)cc3O)n[nH]2)c1` shows -4%
In VDR inh, `CN(CC(=O)Nc1cccc(F)c1)C(=O)c1ccc(OCc2cn3ccccc3n2)cc1` shows -26%

Other results.
SMILES	VDR inh
COc1ccc(NC(=O)CN(C)CC(=O)N2CCCCCC2)cc1	0%
COC(=O)c1ccc(-c2nc3cc(N)ccc3o2)cc1	3%
CN(C)CCNC(=O)CNC(=S)N(CCCN1CCOCC1)Cc1cccs1	13%
CC(=O)N1CCC(N(CCN2CCOCC2)C(=S)Nc2ccc(C)c(C)c2)CC1	9%
CC1=C(C)CC(C(=O)c2ccc(C)cc2)C(C(=O)O)C1 (configuration not stated)	-13%
CC1=C(C(=O)Nc2ccccn2)C(c2ccc(N(C)C)cc2)n2ncnc2N1 (configuration not stated)	-8%
Cc1ccc(C(=O)c2c(NC(=O)c3ccccc3C)sc(C)c2C)cc1	25%
CCc1noc(C)c1C(=O)NNC(=O)COc1cc(C)ccc1C	-2%
COc1ccc(-c2cc(C(=O)N(C)Cc3ccccc3)c3ccccc3n2)cc1	-13%
CC(C)C(=O)Nc1nnc(SCC(=O)NC2CC2)s1	2%

Reformatted as labelled records: 2 of the compounds above.
CC1=C(C)CC(C(=O)c2ccc(C)cc2)C(C(=O)O)C1 (configuration not stated)
- VDR inh = -13%
CN(C)CCNC(=O)CNC(=S)N(CCCN1CCOCC1)Cc1cccs1
- VDR inh = 13%

The list goes on:
SMILES	VDR inh
CCOC(=O)c1c(C)[nH]c(C)c1C(=O)COC(=O)Cc1ccc(OC)c(OC)c1	14%
O=C(CCc1ccccc1)Nc1cccnc1	15%
CCOC(=O)/C(C#N)=C(\O)c1ccc(NC(=O)c2ccc([N+](=O)[O-])cc2)cc1	-13%
Cc1cccc(NS(=O)(=O)c2cccc(C(=O)NCCCN3CCCC3=O)c2)c1	-4%
Cc1ccc(C)n1-n1c(C)nc2sc(-c3ccccc3)cc2c1=O	7%
C=CCOc1ccccc1CNn1nnnc1N	1%
Cc1cc(C)c(S(=O)(=O)NCC(c2cccs2)S(=O)(=O)c2ccccc2)c(C)c1 (configuration not stated)	-1%
CN(C)C(=O)c1ccc(-c2nc(NCc3ccccc3)c3ccccc3n2)cc1	-5%
CN(C)c1ccc(-c2n[nH]c(=S)n2-c2ccccc2)cc1	-4%
CCN(C(=O)COC(=O)C1CC1)c1c(N)n(Cc2ccccc2)c(=O)[nH]c1=O	-6%

Next section; the last 2 above are carried over.
SMILES	VDR inh
CN(C)c1ccc(-c2n[nH]c(=S)n2-c2ccccc2)cc1	-4%
CCN(C(=O)COC(=O)C1CC1)c1c(N)n(Cc2ccccc2)c(=O)[nH]c1=O	-6%
CC1(C)Cc2c(c(N3CCCCC3)[nH]c(=S)c2C#N)CS1	-19%
O=S(=O)(c1ccccc1)N1CCN(C2CCN(Cc3ccccc3)CC2)CC1	37%[activator]
CCN=C1SC(CC(N)=O)C(=O)N1CC (configuration not stated)	5%
Nc1ncnc2c1nc(Br)n2C1OC(CO)C(O)C1O (configuration not stated)	-1%
Cc1c(C(=O)N2CCCCC2)c(S(=O)(=O)NCc2ccc(N(C)C)cc2)c(C)n1C	12%&3%
CN(C)c1ccc(N=Nc2ccccc2C(=O)OCC(=O)NC2CCCC2)cc1	-7%
O=C(CCC(=O)OCc1cccc(C(=O)Oc2ccccc2)c1)Nc1cccc2ccccc12	-1%
CNC(=O)NC(=O)C(OC(=O)CCNS(=O)(=O)c1ccccc1)c1ccccc1 (configuration not stated)	1%
Cc1coc2cc3oc(=O)c(CCC(=O)N4CCCCC4)c(C)c3cc12	15%
O=S(=O)(c1ccc(OCC(O)CN2CCCC2)cc1)N1CCOCC1 (configuration not stated)	18%

Gathered by group, those above with a thiophene ring, fused or not
SMILES	VDR inh
CN(C)CCNC(=O)CNC(=S)N(CCCN1CCOCC1)Cc1cccs1	13%
Cc1ccc(C(=O)c2c(NC(=O)c3ccccc3C)sc(C)c2C)cc1	25%
Cc1ccc(C)n1-n1c(C)nc2sc(-c3ccccc3)cc2c1=O	7%
Cc1cc(C)c(S(=O)(=O)NCC(c2cccs2)S(=O)(=O)c2ccccc2)c(C)c1 (configuration not stated)	-1%

Later entries
SMILES	VDR inh
O=C(OC(C(=O)NCc1ccc2c(c1)OCO2)c1ccc(Cl)cc1)c1ccco1 (configuration not stated)	-1%
Cc1nc(C(N)=O)nc2ccccc12	-3%
O=C(OCc1ccco1)c1ccc(S(=O)(=O)N2CCCCC2)cc1	-15%
Cc1nnc(N2CCN(C(=O)NC(C)C)CC2)c2nn(-c3ccccc3)c(C)c12	10%
CCOCCOC(NC(=O)c1ccccc1)(C(F)(F)F)C(F)(F)F	3%
CC(C)(C)c1ccc(-c2n[nH]c(=S)n2CC2CCCO2)cc1 (configuration not stated)	16%
Cc1ccc(Nc2c(-c3ccc(C)s3)nc3ccccn23)cc1	-17%&-9%
C[C@H](NC(=O)c1nc[nH]c1C(=O)N1CCN(C(=O)OC(C)(C)C)CC1)C(=O)OC(C)(C)C	12%
COC(=O)C1CCN(CC(=O)Nc2ccc(C(=O)Nc3ccccc3OC)cc2)CC1	-3%
Clc1ccc2nc(N3CCCCC3)[nH]c2c1	-8%
COC(=O)[C@]1(CC(C)C)N[C@H](c2ccc(-c3ccc(F)cc3)cc2)[C@@H]2C(=O)N(C)C(=O)[C@@H]21	-14%
O=C(CSc1n[nH]c(=O)n1C1CC1)Nc1ccc(F)c([N+](=O)[O-])c1	3%
COc1ccc(N(Cc2cccs2)C(=O)c2ccco2)cc1	7%
COc1ccc(CCN(C)C(=O)C2CCCN(Cc3ccc(OC)c(OC)c3)C2)cc1OC (configuration not stated)	12%
CN(C)CCNc1oc(-c2ccccc2Cl)nc1S(=O)(=O)c1ccccc1	13%
CCN(CC(=O)Nc1ccc(NC(C)=O)cc1)C(=O)/C=C/c1ccc(C)o1	-5%
O=C(COC(=O)Cc1cccc(C(F)(F)F)c1)NCC1CCCO1 (configuration not stated)	16%
CCSC(=O)NC1CCCCC1	-1%
CCOc1ccc(OCC)c(NC(=O)c2nnn(CC(=O)Nc3cc(Cl)ccc3OC)c2N)c1	1%
CCOc1ccc(NC(=O)Cn2nc(-c3ccccc3Cl)n(CC)c2=S)cc1	-5%
CC(=O)Nc1ccc(S(=O)(=O)N2CCC(C(=O)c3ccc(Cl)cc3)CC2)cc1	34%[activator]
COc1ccccc1N1CCN(S(=O)(=O)c2c(C)sc3ncn(CC(=O)NCCN(C)C)c(=O)c23)CC1	4%&-11%
Cc1ccccc1-c1nc2sc3c(c2c(=O)o1)CCC3	1%
Cc1ccc(-c2nc(CCN3C(=O)c4ccccc4C3=O)cs2)cc1	-1%
C[C@]12C[C@@](C)(C=C1/C=C/c1ccc(F)cc1)C(=O)C[C@H]2c1ccc(F)cc1	1%
CCN(CC)c1ccc(S(=O)(=O)N2CCCCC2)cc1NC(=O)C1CCC1	-13%
Cc1cccc(CNC(=O)c2ccccc2N)c1	u
CCCC(NC(=O)CCc1c(C)c2cc3c4c(oc3c(C)c2oc1=O)CCCC4)C(=O)O (configuration not stated)	-19%
Cn1c(SCC(=O)N2CCN(c3ccccc3)CC2)nnc1-c1ccncc1	19%
CCCCc1cn(C[C@H]2CC[C@@H]([C@@H]3CC[C@H](Cn4cc(CCCC)nn4)O3)O2)nn1	-5%
CC1CCCN(C2(O)C(=O)Nc3ccc(Br)cc32)C1 (configuration not stated)	-24%
Cc1ccc(SCC(=O)OCC(=O)NC2CCCCCC2)cc1	8%
Cc1cccc(C)c1NC(=O)c1c(-c2ccccc2)noc1C	2%
O=C1CC(c2ccc(F)cc2)Sc2nc(-c3ccccc3)c(-c3ccccc3)n21 (configuration not stated)	3%
CC(C)NC(=O)C12CC3CC(C1)CC(n1cnc(Cl)n1)(C3)C2	-9%
NS(=O)(=O)c1ccc(CNC(=O)c2cc(=O)c3ccccc3o2)cc1	4%
CC(C)(C)c1nc(SCC(=O)NC2CCCC2)c2ccccc2n1	-13%
COc1cc(OC)c(OC)cc1CNCCSc1nnnn1-c1ccccc1	-6%
CC(=O)Nc1ccc(NC(=O)c2ccc(C)c(S(=O)(=O)Nc3cccc(C)c3)c2)cc1	3%
COc1cc(/C=C(\C#N)C(=O)NCc2cccs2)ccc1O	22%
Nc1nonc1N1CCCCC1	-6%
COc1ccc(N2CCN(C(=O)c3cc(=O)c4ccc(C)cc4o3)CC2)cc1	-19%
CC(=O)Nc1ccc(NC(=O)CSc2nnc(-c3ccco3)n2Cc2ccco2)cc1	6%
CC1CCN(c2ccc(S(=O)(=O)N3CCC(C)CC3)cc2N)CC1	8%
Cc1ccc(C(=O)C[n+]2cc(-c3ccc(C)cc3)n3c2CCCCC3)cc1	-3%
CCC1(C)Cc2ccccc2-c2nc(NCCCO)n(C)c(=O)c21 (configuration not stated)	-1%
O=C(O)CSc1ccccn1	13%
COC(=O)[C@@H](NC(=O)N(C1CCCCC1)C1CCCCC1)C(C)C	14%
CC(=O)Nc1ccc(NC(=O)c2c([N+](=O)[O-])cnn2C)cc1	-2%
CCOC(=O)c1nnn2c1nc(N1CCOCC1)c1ccccc12	23%
(further entries)
SMILES	VDR inh
C/C(CCc1ccc2c(c1)OCO2)=N\N=C1\NC(=O)CC(C(=O)Nc2ccc(Cl)cc2)S1 (configuration not stated)	-6%
CSc1nc2c(sc3ccccc32)c(=O)n1Cc1ccc(C)cc1	20%
CCOC(=O)c1ccccc1NC(=O)CN1C(=O)CCS(=O)(=O)c2ccccc21	-9%
CC(=O)OC1CC2CCC1(C)C2(C)C (configuration not stated)	9%&-1%
Cc1nn(C)c(C(=O)N/N=C/c2ccc(Br)cc2)c1Cl	-1%
COc1ccc(CCN(Cc2cc3cccc(C)c3[nH]c2=O)C(=O)NC2CCCCC2)cc1OC	0%
O=C(CSc1nnc(-c2ccncc2)n1-c1ccccc1)NCC1CCCO1 (configuration not stated)	-2%
CCOC(=O)c1cc(CC)sc1NC(=O)c1cc([N+](=O)[O-])ccc1N1CCOCC1	3%
Cc1cc(S(=O)(=O)NCc2ccccc2)ccc1OCC(=O)NCc1cccnc1	-9%
C/C(Cl)=C/Cc1c(C)[nH]c2ccc(C)cc2c1=O	-22%
CC/C(C)=N/Nc1nc2c(c(=O)[nH]c(=O)n2C)n1Cc1ccccc1	-26%
CCOC(=O)N1CCc2c(sc(NCc3ccc(OCC)cc3)c2C(=O)Nc2ccc(OC)cc2OC)C1	-3%
COc1ccc(C(=O)[C@H]2[C@H]3C(=O)N(c4ccc(OC(C)=O)cc4)C(=O)[C@H]3C3C=CC=NN32)cc1 (some centres not stated)	7%
O=C(O)c1cccc(NC(=S)N/N=C/c2ccccc2OCc2cccc(Br)c2)c1	u
Oc1c(N=NC(=S)Nc2ccccc2F)c2ccccc2n1Cc1ccccc1Cl	7%
O=[N+]([O-])c1ccc(S(=O)(=O)NCC2CCCO2)cc1 (configuration not stated)	-8%
O=C(CCNC(=O)c1ccc(Br)cc1)Nc1ccc(S(=O)(=O)N2CCOCC2)cc1	-5%
Nc1nc(NCCCN2CCOCC2)nc(Nc2ccc(F)cc2)c1[N+](=O)[O-]	-9%
O=C(CNS(=O)(=O)c1ccccc1F)OCC(=O)c1c[nH]c2ccccc12	-13%
CCCCCN(C(=O)NC(=O)Nc1ccccc1C)S(=O)(=O)c1ccccc1	9%
Cc1nc2ccc(S(=O)(=O)N(CC(=O)Nc3cccc(Cl)c3)Cc3ccccc3)cc2s1	-7%
COc1cccc(C(=O)OC(C)C(=O)NCC2CCCCC2)c1 (configuration not stated)	19%
CCOC(=O)c1sc(NC(=O)c2ccc(C)s2)cc1C	-2%
COc1ccc(CC(NC(C)=O)C(=O)NC2CCN(C(=O)Nc3ccccc3C)CC2)cc1OC (configuration not stated)	1%
Cc1sc2nc(CN(CCc3ccccc3)C(=O)c3ccco3)[nH]c(=O)c2c1C	-4%
NC(=O)CSc1n[nH]c(-c2ccco2)n1	-13%
O=C(CC1C(=O)NC2CCCCC2N1C(=O)c1ccc(F)cc1)Nc1ccccc1 (configuration not stated)	13%
CCn1c(CCNC(=O)c2ccc(C)cc2)nnc1SCc1ccc(Cl)c(Cl)c1	1%
CCOC(=O)Cn1nnnc1CN(Cc1ccc(OC)cc1)Cc1cc2cc(CC)ccc2[nH]c1=O	-22%
CC(=O)Oc1c(C(=O)c2nnc(C)o2)c(=O)n(C)c2ccccc12	-15%
Cc1ccc(N/C(N)=N/c2nc(CSc3nnc(C)s3)cc(=O)[nH]2)c(C)c1	0%
CCc1ccccc1NC(=O)CNC(=O)c1cc(C2CC2)nn1-c1ccccc1	23%
COc1ccc(CCOC(=O)CNC(=O)c2ccc(Cl)cc2Cl)cc1	3%
CC1Cc2nc(SCC(=O)N3CCOCC3)n(-c3ccccc3)c(=O)c2S1 (configuration not stated)	-9%
